PD-1 reversal = reversal of PD-1 mediated T-cell inhibition. activation, % (concentration not given with the values). primary human CD4 T cells, PD-L1 beads, CellTiter-Glo 96 h. 29,000 tested, under 10 active;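 active = replicate mean of 50% or more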;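 also: 0% = median vehicle wells and 100% = positive control; 100 nL library stock added to about 50 µL; numbers are from one replicate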
Shh pathway inh = Sonic Hedgehog pathway inhibition | inhibition, % (test concentration not listed) | 2.1% of 22,000 active | AID 2313 | Shh-LIGHT2 Gli-luciferase reporter, 30 h;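 active = replicate mean of 65% or more; inconclusive = mean lower but half the replicates past it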;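 also: pathway switched on by Shh-conditioned medium diluted 1 in 25 in low serum; 100 nL library stock added to about 40 µL; 0% = median of neutral wells and 100% = positive control level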
YB-1 expression = YB-1 expression inhibition | U2OS, qRT-PCR YB-1 vs CDIP delta delta Cp, 16 h; hits give high values; zero = DMSO, each unit about twofold | 0.37% of 30,000 active | delta delta Cp (YB-1 minus CDIP) (test concentration not listed);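 active = delta delta Cp rounded down to an integer at or above 3, about 3 SD of DMSO wells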;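 also: higher means less YB-1 transcript or more CDIP transcript relative to DMSO; stock transfer was 100 nL into about 100 µL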
MITF inh = MITF inhibition. TRPM1 promoter luciferase, luminescence, 24 h. inhibition, % (test concentration not listed). 0.28% of 37,000 active. AID 2240;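 active = most replicates at 85% or more, or half of them and the mean; inconclusive = half reach 85% but not the mean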;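 also: human melanocyte line stably carrying TRPM1 promoter luciferase reporter; 0% = vehicle wells and 100% = a positive control; the first replicate is given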
* marks the source's active call; other numbers are inactive results; ? = inconclusive; nt = not tested or not shown. An excerpt; rates above refer to the full screens.

Codes: A = PD-1 reversal; B = Shh pathway inh; C = YB-1 expression; D = MITF inh
1) C[C@H]1CN([C@@H](C)CO)C(=O)Cc2cc(NS(C)(=O)=O)ccc2O[C@@H]1CN(C)Cc1ccc(C(F)(F)F)cc1
  A: nt	B: -50	C: -0.023	D: 5

2) CC(C)NC(=O)Nc1ccc2c(c1)CC(=O)N([C@@H](C)CO)C[C@H](C)[C@H](CN(C)CC1CCCCC1)O2
  A: 1.1	B: 0	C: -0.027	D: -6

3) C[C@@H]1CN([C@H](C)CO)C(=O)c2cc(NC(=O)Cc3cn(C)c4ccccc34)ccc2O[C@@H]1CN(C)Cc1ccc(Oc2ccccc2)cc1
  A: -4.2	B: ?	C: -0.026	D: 16

4) COc1ccc(S(=O)(=O)N(C)CC(=O)Nc2cccc(C(C)=O)c2)cc1Cl
  A: 2.0	B: nt	C: nt	D: -12

5) NC(=NC(=O)c1ccc(Cl)cc1)c1ccc(C(F)(F)F)cn1
  A: -1.9	B: -83	C: -0.12	D: -39

6) C[C@H](CO)N1C[C@H](C)[C@@H](CN(C)S(=O)(=O)c2cccs2)Oc2c(NC(=O)Nc3ccc(C(F)(F)F)cc3)cccc2C1=O
  A: 1.7	B: 4	C: 0.33	D: 19

7) C[C@@H]1CN([C@@H](C)CO)C(=O)c2cccc(NC(=O)C3CC3)c2O[C@@H]1CN(C)Cc1ccc(C(F)(F)F)cc1
  A: 5.1	B: -18	C: 0.15	D: 5

8) COc1ccc(NC(=O)Nc2cccc3c2O[C@H](CN(C)Cc2ccc(C(=O)Nc4ccccc4N)cc2)[C@@H](C)CN([C@@H](C)CO)C3=O)cc1
  A: -4.2	B: nt	C: -0.74	D: 2

9) C[C@@H]1CN([C@H](C)CO)C(=O)Cc2cc(NC(=O)Nc3ccc(F)cc3)ccc2O[C@@H]1CN(C)C(=O)Nc1cccc2ccccc12
  A: nt	B: 23	C: -0.24	D: -15

10) CN1CCN(CC(=O)N2N=C(c3c(-c4ccccc4)c4cc(Cl)ccc4[nH]c3=O)CC2c2ccccc2)CC1 (configuration not stated)
  A: -12	B: nt	C: nt	D: 1

11) C[C@H](CO)N1C[C@H](C)[C@H](CN(C)CC2CCCCC2)Oc2c(NC(=O)Nc3ccc(F)cc3)cccc2C1=O
  A: -0.5	B: 42	C: 0.057	D: 1

12) COc1cc(-c2oc3cc(O)c(OC)c(O)c3c(=O)c2OC)ccc1O
  A: -0.6	B: -56	C: -0.76	D: -38

13) C[C@@H]1CN([C@@H](C)CO)C(=O)c2cc(NC(=O)Cn3cnnn3)ccc2O[C@H]1CN(C)Cc1ccccc1
  A: 1.9	B: nt	C: 0.11	D: 5

14) C[C@@H]1CN([C@H](C)CO)C(=O)Cc2cc(N(C)C)ccc2O[C@H]1CN(C)Cc1ccccc1
  A: nt	B: 21	C: -0.14	D: 0

15) COc1ccc(CN(C)C[C@@H]2Oc3c(NS(=O)(=O)c4ccc(C)cc4)cccc3C(=O)N([C@@H](C)CO)C[C@H]2C)cc1
  A: -0.5	B: -7	C: 0.16	D: -1

16) Cc1ccc(S(=O)(=O)Nc2cccc3c2O[C@H](CN(C)Cc2ccc(C(F)(F)F)cc2)[C@@H](C)CN([C@H](C)CO)C3=O)cc1
  A: 0.2	B: 16	C: -0.075	D: -3

17) Cc1cc(C)c(S(=O)(=O)NCC(=O)Nc2ccc(F)c(Cl)c2)c(C)c1
  A: -3.9	B: nt	C: nt	D: 9

18) O=C(Oc1ccccc1)c1cccc(COC(=O)c2cc(=O)[nH]c3ccccc23)c1
  A: -0.4	B: nt	C: nt	D: 6

19) C[C@H]1CN([C@@H](C)CO)C(=O)c2cc(NS(=O)(=O)c3ccc(Cl)cc3)ccc2O[C@H]1CN(C)S(=O)(=O)c1cccs1
  A: -4.7	B: -8	C: 0.15	D: -6

20) O=C(/C=C/c1ccccc1)NCCCCNCCCNC(=O)/C=C/c1ccccc1
  A: 0.4	B: 41	C: -0.62	D: 3

21) Cc1ccc(S(=O)(=O)Nc2ccc3c(c2)C(=O)N([C@H](C)CO)C[C@H](C)[C@H](CN(C)C(=O)NC2CCCCC2)O3)cc1
  A: -2.1	B: 5	C: 0.21	D: 5

22) C[C@H]1CN([C@@H](C)CO)C(=O)c2cc(NC(=O)Cc3ccccc3)ccc2O[C@@H]1CN(C)C(=O)Nc1cccc2ccccc12
  A: -0.5	B: -32	C: -0.34	D: -5

23) Cc1noc(C)c1NC(=O)Nc1ccc2c(c1)CC(=O)N([C@@H](C)CO)C[C@@H](C)[C@@H](CN(C)CC1CCCCC1)O2
  A: 2.3	B: -2	C: 0.036	D: -3

24) COc1ccc(-n2ncc(NC(=O)Nc3ccc4c(c3)OCCCO4)c2C)cc1
  A: -0.2	B: ?	C: -0.046	D: -13

25) C[C@H]1CN([C@@H](C)CO)C(=O)c2cc(NS(=O)(=O)c3cn(C)cn3)ccc2O[C@H]1CN(C)Cc1ccc(C(=O)O)cc1
  A: 0.5	B: nt	C: -0.22	D: -5

26) C[C@@H]1CN([C@@H](C)CO)C(=O)Cc2cc(NC(=O)CCCCCC(=O)Nc3ccccc3N)ccc2O[C@@H]1CN(C)CC1CCCCC1
  A: 0.6	B: nt	C: -0.16	D: 5

27) C[C@H]1CN([C@@H](C)CO)C(=O)c2cc(NC(=O)C3CC3)ccc2O[C@@H]1CN(C)C(=O)Nc1ccc(F)cc1
  A: 0.2	B: -13	C: 0.13	D: -1

28) C[C@@H]1CN([C@H](C)CO)C(=O)c2cc(NC(=O)CCCN(C)C)ccc2O[C@H]1CN(C)Cc1ccc(Oc2ccccc2)cc1
  A: 1.1	B: nt	C: -0.31	D: -5

29) Cn1c(SCC(=O)Nc2sc3c(c2C#N)CCCC3)nnc1-c1ccc(Cl)cc1Cl
  A: 2.7	B: nt	C: nt	D: 0

30) CC(C)NC(=O)Nc1ccc2c(c1)C(=O)N([C@H](C)CO)C[C@@H](C)[C@@H](CN(C)Cc1ccc(C(=O)Nc3ccccc3N)cc1)O2
  A: -1.6	B: nt	C: -0.49	D: -29

2 entries drawn at random from those above, as already listed:
Codes: A = PD-1 reversal; B = Shh pathway inh; C = YB-1 expression; D = MITF inh
28) C[C@@H]1CN([C@H](C)CO)C(=O)c2cc(NC(=O)CCCN(C)C)ccc2O[C@H]1CN(C)Cc1ccc(Oc2ccccc2)cc1
  A: 1.1	B: nt	C: -0.31	D: -5

21) Cc1ccc(S(=O)(=O)Nc2ccc3c(c2)C(=O)N([C@H](C)CO)C[C@H](C)[C@H](CN(C)C(=O)NC2CCCCC2)O3)cc1
  A: -2.1	B: 5	C: 0.21	D: 5

Copied from above: entries 29–30
Codes: A = PD-1 reversal; B = Shh pathway inh; C = YB-1 expression; D = MITF inh
29) Cn1c(SCC(=O)Nc2sc3c(c2C#N)CCCC3)nnc1-c1ccc(Cl)cc1Cl
  A: 2.7	B: nt	C: nt	D: 0

30) CC(C)NC(=O)Nc1ccc2c(c1)C(=O)N([C@H](C)CO)C[C@@H](C)[C@@H](CN(C)Cc1ccc(C(=O)Nc3ccccc3N)cc1)O2
  A: -1.6	B: nt	C: -0.49	D: -29

Next part:
Codes: A = PD-1 reversal; B = Shh pathway inh; C = YB-1 expression; D = MITF inh
31) COc1cc([C@H]2c3cc(O)c(OC)cc3C[C@@](O)(CO)[C@@H]2CO)ccc1O
  A: 1.0	B: -34	C: 0.33	D: -21

32) N#Cc1ccc(-c2ccc(OC(=O)CS(=O)c3ccc(C(F)(F)F)cc3[N+](=O)[O-])cc2)cc1 (configuration not stated)
  A: -11	B: nt	C: nt	D: -8

33) COc1ccccc1N1CCN(CCNC(=O)Nc2cccc(C)c2C)CC1
  A: -3.0	B: nt	C: nt	D: 1

34) O=C(CCCN1C(=O)c2ccccc2C1=O)Nc1cccc(Cl)c1Cl
  A: -1.0	B: nt	C: nt	D: -34

35) COc1ccc(C(=O)Nc2ccccc2)cc1S(=O)(=O)Nc1cc(C)on1
  A: -0.3	B: nt	C: nt	D: 5

36) CCOC(=O)c1c(NC(=O)CSc2nc3ccccc3c(=O)[nH]2)sc2c1CCCC2
  A: -4.7	B: nt	C: nt	D: 10

37) CC(C)NC(=O)N(C)C[C@H]1Oc2ccc(NC(=O)Nc3ccc(C(F)(F)F)cc3)cc2CC(=O)N([C@@H](C)CO)C[C@@H]1C
  A: nt	B: nt	C: -0.5	D: 0

38) Cc1nnc(SCC(=O)Nc2cccc(I)c2)s1
  A: 1.5	B: nt	C: nt	D: 35

39) CC(Oc1ccc(F)cc1)C(=O)NCCN1CCOCC1 (configuration not stated)
  A: 2.3	B: nt	C: nt	D: -14

40) COc1ccc(CCC(=O)O)c(O[C@@H]2O[C@H](CO)[C@@H](O)[C@H](O)[C@H]2O)c1
  A: 5.1	B: -36	C: -0.015	D: 12

41) Cc1ccc(S(=O)(=O)N(C)C[C@@H]2Oc3ccc(NS(=O)(=O)c4cn(C)cn4)cc3CC(=O)N([C@H](C)CO)C[C@H]2C)cc1
  A: 0.8	B: -4	C: 0.23	D: -11

42) Cc1noc(C)c1S(=O)(=O)Nc1ccc2c(c1)C(=O)N([C@@H](C)CO)C[C@@H](C)[C@H](CN(C)Cc1ccc(-c3ccccc3)cc1)O2
  A: nt	B: 24	C: 0.024	D: -4

43) Cc1noc(C)c1NC(=O)Nc1ccc2c(c1)CC(=O)N([C@H](C)CO)C[C@H](C)[C@H](CN(C)C(=O)Nc1ccccc1)O2
  A: 0.2	B: 6	C: -0.069	D: -12

44) Cc1noc(C)c1NC(=O)Nc1cccc2c1O[C@@H](CN(C)Cc1ccc3c(c1)OCO3)[C@H](C)CN([C@H](C)CO)C2=O
  A: -0.9	B: 14	C: 0.04	D: -5

Whole records from above. Order of values: PD-1 reversal | Shh pathway inh | YB-1 expression | MITF inh
`COc1cc([C@H]2c3cc(O)c(OC)cc3C[C@@](O)(CO)[C@@H]2CO)ccc1O` in the list: 1.0 | -34 | 0.33 | -21
`Cc1noc(C)c1NC(=O)Nc1ccc2c(c1)CC(=O)N([C@H](C)CO)C[C@H](C)[C@H](CN(C)C(=O)Nc1ccccc1)O2` in the list: 0.2 | 6 | -0.069 | -12
`N#Cc1ccc(-c2ccc(OC(=O)CS(=O)c3ccc(C(F)(F)F)cc3[N+](=O)[O-])cc2)cc1` (configuration not stated) in the list: -11 | nt | nt | -8
`CC(Oc1ccc(F)cc1)C(=O)NCCN1CCOCC1` (configuration not stated) in the list: 2.3 | nt | nt | -14
`COc1ccc(CCC(=O)O)c(O[C@@H]2O[C@H](CO)[C@@H](O)[C@H](O)[C@H]2O)c1` in the list: 5.1 | -36 | -0.015 | 12

Taken from above.
PD-1 reversal with no. 40 → 5.1
Shh pathway inh with no. 44 → 14

Screens: PubChem BioAssay, Broad Institute
